# Source: PubChem (ICCB-Longwood Screening Facility, Harvard Medical School)
# Anaer choline gr – blocks anaerobic gram-negative growth on choline. Gram-negative bacterium anaerobic choline minimal medium, absorbance growth; hits give low values; many inactives read as strong as hits in the columns shown. calls only. 0.2% of 55,000 active;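 active = growth z-score on choline under -2 at 7 or 20 h with little or no fall on glycerol, limits in tiers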;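 note: stock transfer was 300 nL into about 50 µL; the organism is E. coli; final concentration not given here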
# Anaer choline gr early – also measured in Anaer choline gr; calls as there; z-score; measured here: choline growth z-score, timepoint 1;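 score of optical density at 7 h as mean of two plates; lower means less growth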
# * marks the source's active call; other numbers are inactive results; i = inactive; + = active, no number; & = joins results of further samples.
SMILES,Anaer choline gr,Anaer choline gr early
CC1(C)C(=O)NN(c2ccccc2)C1=O,i,0.36
O=C(NC1CC1)c1n[nH]c2c1CCCCCC2,i,-0.81
CC(C)NC(=O)CCc1nc(-c2cc3ccccc3[nH]c2=O)no1,i,0.21
COc1ccnc2c1c(=O)n(CC(=O)Nc1ccc(Br)cc1)c(=O)n2C,i,-1.2
O=S1(=O)C[C@H](NC2CCCCCC2)[C@@H](S(=O)(=O)c2ccccc2)C1,i,0.29
Cc1ccc(S(=O)(=O)c2cnc(N3CCC4(CC3)OCCO4)nc2N)cc1,i,0.36
Cc1ccc(-c2[nH]nc3c2C(C(=O)c2ccc(C)c(C)c2)CC(=O)N3)cc1 (stereo unspecified),i,0.43
O=c1n(Cc2cccc(F)c2)nc2c(S(=O)(=O)N3CCCCC3)cccn12,i,-0.18
CN(Cc1ccccc1)S(=O)(=O)c1ccc2[nH]c3c(c2c1)CCCC3,i,-1
CC1=NS(=O)(=O)c2cccnc2N1c1cccc(Br)c1,i,-2.4
CCCCCC(=O)/C=C/[C@@H]1[C@@H](CCCCCCC(=O)O)[C@@H](O)C[C@H]1O,i,-1
Cc1ccc(Nc2nc(NCC3CCCO3)nc3c2cnn3-c2ccccc2)cc1 (stereo unspecified),i,-0.76
COc1ccc(NC(=O)C2CCN(S(=O)(=O)c3ccc4[nH]c(=O)sc4c3)CC2)c(OC)c1,i,0.22
Cc1ccccc1C(=O)N1CCN(c2cc(=O)n3nc(-c4ccccc4)sc3n2)CC1,i,-0.06
C=CCN(c1ccccc1)S(=O)(=O)c1ccc2[nH]cc(C(=O)N3CCC(C)CC3)c(=O)c2c1,i,0.54
Cc1ccc(SCC(=O)Nc2nc3ccc(S(N)(=O)=O)cc3s2)cc1,i,1.7
Cc1cc(C)c(S(=O)(=O)Nc2ccc(-c3ccc(N4CCOCC4)nn3)cc2)cc1C,i,-0.33
COC(=O)C1=C(C)NC(C)=C(C(=O)O[C@@H]2CCCN(Cc3ccccc3)C2)[C@@H]1c1cccc([N+](=O)[O-])c1,i,1.3
COC(=O)c1ccc(C2Nc3c(C)cc(C)cc3[C@H]3OCC[C@@H]23)cc1 (stereo partly specified),i,0.33
CCCC(=O)Nc1ccc(C(=O)N2CCC(C(=O)NCC3CCCO3)CC2)cc1 (stereo unspecified),i,-0.94
O=C(Cn1ncn2c(cc3ccccc32)c1=O)N1CCN(c2ccccn2)CC1,i,-0.14
c1ccc(Cc2nnc3sc(-c4c[nH]c5ccccc45)nn23)cc1,i,0.54
COc1ccc(C)cc1S(=O)(=O)n1ccnc1,i,0.61
CN(CCc1noc(-c2ccc(C(=O)N3CCCC3)cc2)n1)C(=O)c1ccc(Br)cc1,i,-0.11
CNCc1ccc(-c2ccc(Cl)cc2Cl)o1,i,-2.6
Cc1nc(N(C)C)cc(N2CCN(C(=O)c3ccc(Cl)cc3)CC2)n1,i,0.94
Brc1ccc(C2=Nn3c(nnc3-c3cccnc3)SC2)cc1,i,0.24
Cc1ccc(CN2CCN(C3CCN(C(=O)NCCC(C)C)CC3)C2=O)cc1,i,0.09
Cn1c(CN2CCN(C(=O)NC3CCCCC3)CC2)nc2cc(C(=O)N3CCCC3)ccc21,i,-0.38
CCOCCCNS(=O)(=O)c1cc(-c2cc(C)[nH]n2)sc1C,i,-0.12
Cn1nc(-c2nnc(-c3ccccc3F)o2)c2c1CCN(S(=O)(=O)c1cccc3nsnc13)C2,i,0.13
CCOc1ccc(NC2=NC(c3cccnc3)n3c(nc(C)cc3=O)N2)cc1 (stereo unspecified),i,-0.28
O=C(O)C1CC(=O)N(CCN2CCCCC2)C1 (stereo unspecified),i,1.1
Cc1nc(N(C)C)cc(N2CCN(C(=O)Nc3ccc(Cl)cc3)CC2)n1,i,-0.6
CCOC(=O)c1[nH]c(C)c(CN(CC2CCCO2)C(=O)c2cccnc2)c1C (stereo unspecified),i,0.51
O=C(Nc1ccc(Cl)cc1)c1nc(-n2cnnc2)ccc1Cl,i,-0.96
Cc1nn(-c2ccccc2)c2sc(C(=O)Oc3ccc4cnccc4c3)cc12,i,0.44
Cc1nn(C(=O)Nc2ccc(F)cc2F)c2ccccc12,i,0.45
CCc1nnc2n1NC(c1ccc(Cl)cc1)C(C(=O)Nc1cc(C)cc(C)c1)S2 (stereo unspecified),i,1.6
COc1ccccc1OCC(O)CO (stereo unspecified),i,0.56&0.44&0.7

# Molecules shown so far with an aryl methoxy group:
SMILES,Anaer choline gr,Anaer choline gr early
COc1ccnc2c1c(=O)n(CC(=O)Nc1ccc(Br)cc1)c(=O)n2C,i,-1.2
COc1ccc(NC(=O)C2CCN(S(=O)(=O)c3ccc4[nH]c(=O)sc4c3)CC2)c(OC)c1,i,0.22
COc1ccc(C)cc1S(=O)(=O)n1ccnc1,i,0.61
COc1ccccc1OCC(O)CO (stereo unspecified),i,0.56&0.44&0.7

# (next part)
SMILES,Anaer choline gr,Anaer choline gr early
CN(C)c1ncncc1N1CCC(C(=O)N2CCCCC2)CC1,i,0.81
COc1ccc(-n2ccc(=O)c(-c3nc(-c4ccc(OC)c(OC)c4)no3)n2)cc1,i,0.24
Cc1cc(NC(=O)CCc2nc(CSc3nc(-c4ccccc4)cs3)no2)no1,i,1.9
[N-]=[N+]=Nc1ccc(C(=O)CSC[C@H](NC(=O)CC[C@H](N)C(=O)O)C(=O)NCC(=O)O)cc1,i,1
CCC(C(=O)Nc1cc(Cl)ccc1OC)n1c(C(=O)OC)cc2ccsc21 (stereo unspecified),i,1.8
O=C(Nc1nc(-c2ccc(Br)s2)ns1)c1ccc(Br)o1,i,0.31
Cn1nc(C(=O)NCc2ccccc2)c2c1CCN(C(=O)c1ccccc1)C2,i,0.47
O=C(NCc1ccc2c(c1)OCO2)c1cccc(Oc2cc(-c3ccccc3)ncn2)c1,i,0.75
Cc1nn(-c2ccc3nnc(C)n3n2)c2c1C(c1cccc(Br)c1)CC(=O)N2 (stereo unspecified),i,-1.3
CCOC(=O)c1ccc(NC(=O)Nc2c(C)nc3nc[nH]n3c2=O)cc1,i,0.67
COc1cc(Cl)c(Nc2cc(C(=O)O)c3ccccc3n2)c(OC)c1,i,0.25
COc1ccc(NC(=O)C2CCN(c3cc(=O)n(C)c(=O)n3C)CC2)c(OC)c1,i,0.19
COc1ccccc1N1CCN(C(=O)CCc2nnc3c4cc(-c5ccccc5)nn4ccn23)CC1,i,-0.01
Cc1ccc(CNc2ncccc2-c2nc(C)no2)cc1,i,0.49
CC1(C)Cc2ccccc2C(=NCCCCCC(=O)O)N1,i,0.23
CCCc1cc(=O)[nH]c(-n2nc(C)cc2NC(=O)C2CC(=O)N(c3ccc(F)cc3)C2)n1 (stereo unspecified),i,-0.9
COc1ccc(C2CC(=O)N(c3ccc(C(C)C)cc3)C(=O)C2)cc1,i,1.4
c1ccc(-c2nnc(-c3cccnc3NCC3CCCO3)o2)cc1 (stereo unspecified),i,-0.62
c1cc(CNC2CCCC2)n(-c2nnc(N3CCCC3)s2)c1,i,1.1
COc1ccc(S(=O)(=O)N2CCN(c3nc4ccccc4n4cccc34)CC2)cc1Cl,i,-1.2
O=C(Cn1c(=O)oc2ccc(C(=O)N3CCCC3)cc21)NC1CCCC1,i,-1
CCc1ccccc1N1CC(c2nnc(NC(=O)c3c(-c4ccccc4)noc3C)s2)CC1=O (stereo unspecified),i,0.34
Cc1nc(N2CCCC2)c2c(C)c(C(=O)NC3CCCC3)sc2n1,i,-0.45
Cc1cc2c(cc1C)N(Cc1ccccc1C)C(=O)C1CCCC1=N2 (stereo unspecified),i,0.5
c1ccc(Cn2cc3c(-c4ccccc4)nnc-3c3cc4c(cc32)OCO4)cc1,i,1.1
Cc1ccc(CNC(=O)C2(C)CCCN(C(=O)Nc3ccc4c(c3)OCCO4)C2)cc1 (stereo unspecified),i,-1.4
Cc1ccc(-c2nc(-c3cccnc3)[nH]c2-c2ccccc2)cc1C,i,1.5
O=C(c1ccc2ccnc(N3CCN(c4ccc(Cl)cc4)CC3)c2c1)N1CCCCC1,i,-1.4
COc1cc(C)c(S(=O)(=O)N2CCc3cc4cc(C)ccc4nc32)cc1C,i,0.73
CC(C)c1cc(C2CCCN2C(=O)C2CCCC2)no1 (stereo unspecified),i,0.33
CC1Cc2ccccc2N1C(=O)Cc1csc(NC(=O)Nc2ccc(Cl)cc2)n1 (stereo unspecified),i,0.36
Cc1cc(C)nc(NC(c2ccccc2F)c2c(NC(=O)c3ccccc3)sc(C)c2C)n1 (stereo unspecified),i,-0.82
O=C(Nc1ccncc1)c1c(O)c2ccccc2n(-c2ccccc2)c1=O,i,1.2
O=C1c2cccnc2C(=O)N1CCc1ccc(S(=O)(=O)N2CCN(c3ccccc3F)CC2)cc1,i,0.25
CCCCCCCC/C=C\CCCCCCCCOC[C@H](COP(=O)([O-])OCC[N+](C)(C)C)OC(C)=O,i,0.4
O=C(CNS(=O)(=O)Cc1ccccc1)NCc1cscn1,i,-1.3
Cc1ccc(C(=O)N2CCC(Oc3cc(N(C)C)ncn3)C2)s1 (stereo unspecified),i,-0.01
O=C1COc2ccc(S(=O)(=O)N3CCCC(C(=O)NCc4ccccc4Cl)C3)cc2N1 (stereo unspecified),i,1.6
O=C(Nc1nccs1)C1CCC(CNc2c(N3CCOCC3)c(=O)c2=O)CC1 (stereo unspecified),i,-0.04
CCOc1ccc(-c2nonc2NC(=O)COc2cc(C)cc(C)c2)cc1C,i,1.1

# Filtered by structure: those above with fluorine
SMILES,Anaer choline gr,Anaer choline gr early
O=c1n(Cc2cccc(F)c2)nc2c(S(=O)(=O)N3CCCCC3)cccn12,i,-0.18
Cn1nc(-c2nnc(-c3ccccc3F)o2)c2c1CCN(S(=O)(=O)c1cccc3nsnc13)C2,i,0.13
Cc1nn(C(=O)Nc2ccc(F)cc2F)c2ccccc12,i,0.45
CCCc1cc(=O)[nH]c(-n2nc(C)cc2NC(=O)C2CC(=O)N(c3ccc(F)cc3)C2)n1 (stereo unspecified),i,-0.9
Cc1cc(C)nc(NC(c2ccccc2F)c2c(NC(=O)c3ccccc3)sc(C)c2C)n1 (stereo unspecified),i,-0.82
O=C1c2cccnc2C(=O)N1CCc1ccc(S(=O)(=O)N2CCN(c3ccccc3F)CC2)cc1,i,0.25

# More results.
SMILES,Anaer choline gr,Anaer choline gr early
O=C(NCc1ccccc1)c1cc(-c2ccc(F)cc2)nc2n[nH]c(-c3ccccc3)c12,i,1.4
Cc1cc(C)c(NC(=O)c2ccc(-n3nnc4cccnc43)cc2)c(C)c1,i,1.9
COCCN1C(=O)c2ccccc2Sc2cc(NC(=O)C3CC(=O)N(c4ccccc4)C3)ccc21 (stereo unspecified),i,-0.5
Cc1nc2ccc(S(=O)(=O)NC(C(=O)N3CCC(C)CC3)C(C)C)cc2s1 (stereo unspecified),i,0.9
O=C(CCn1cnc2cc(-c3noc(Cc4ccccc4Br)n3)ccc21)N1CCCC1,i,-1.8
CCCCCCCC/C=C\CCCCCCCC(=O)NCCc1ccc(O)c(O)c1,i,-0.49&-0.69&0.47
Cc1nc(-c2cccc(N3CC(C(=O)NCc4ccc(Cl)cc4)CC3=O)c2)no1 (stereo unspecified),i,-1.9
Cc1cc(N2CCOCC2)n2nc(CN3CCN(C)CC3)nc2n1,i,-0.95
O=C(CN1C(=O)C2CCCN2C(=O)c2ccc(F)cc21)NCC1CCCO1 (stereo unspecified),i,-0.64
CSc1nnc(-c2nn(C)c3c2CN(C(=O)C(C)(C)C)CC3)n1C,i,-1.5
O=S1(=O)NC(c2ccccc2)Nc2ccccc21 (stereo unspecified),i,-0.44
O=C(c1cc(-c2ccc3c(c2)OCO3)on1)N1CCCC1c1ccc(Cl)cc1 (stereo unspecified),i,-0.35
COC(=O)C1CCN(C(=O)c2cn(C)c3c(=O)n(-c4ccc(Cl)cc4)c(=O)[nH]c23)CC1,i,-0.33
CCCCN(C)c1ccc2nnc(CCc3nc(-c4cc(OC)cc(OC)c4)no3)n2n1,i,1.3
Cc1ccc(S(=O)(=O)NCc2ccc3c(c2)CCN3C(=O)c2ccc(F)cc2)cc1C,i,-1
COc1ccc2c(c1)NC1(CCN(C(=O)NC3CCCCC3)CC1)c1cccn1-2,i,-0.14
Cc1cccc(C(=O)N2CSC[C@@H]2C(=O)NCCc2cscn2)c1,i,-0.21
N=C(N)c1ccc(N)cc1,i,-0.14
Cc1ccc(NC(=O)c2ccc(=O)n(CC(=O)Nc3ccc(C(C)C)cc3)n2)cc1,i,-0.15
CCn1c(=O)c(C(=O)Nc2ccc(F)cc2)c(O)c2ccccc21,i,1.1

# Sorted by formula weight (largest number first): 6 of the compounds above
SMILES,Anaer choline gr,Anaer choline gr early
O=C(NCc1ccccc1)c1cc(-c2ccc(F)cc2)nc2n[nH]c(-c3ccccc3)c12,i,1.4
Cc1nc(-c2cccc(N3CC(C(=O)NCc4ccc(Cl)cc4)CC3=O)c2)no1 (stereo unspecified),i,-1.9
O=C(c1cc(-c2ccc3c(c2)OCO3)on1)N1CCCC1c1ccc(Cl)cc1 (stereo unspecified),i,-0.35
Cc1cc(C)c(NC(=O)c2ccc(-n3nnc4cccnc43)cc2)c(C)c1,i,1.9
Cc1cc(N2CCOCC2)n2nc(CN3CCN(C)CC3)nc2n1,i,-0.95
O=S1(=O)NC(c2ccccc2)Nc2ccccc21 (stereo unspecified),i,-0.44

# Following part
SMILES,Anaer choline gr,Anaer choline gr early
Cc1cccc(CC(=O)NCCc2sc(-c3ccc(F)cc3)nc2C)c1,i,1.3
O=C1COc2ccc(S(=O)(=O)N3CCCC3C(=O)N3CCN(c4ccccc4F)CC3)cc2N1 (stereo unspecified),i,-0.4
CCCCNC(=O)c1cccc(Oc2ccnc(-c3ccc(F)cc3)n2)c1,i,-0.18
O=C1Nc2ccccc2C1Cc1ccc(Cl)cc1 (stereo unspecified),+,-1.1*
CCc1onc(C)c1C1CCCN1Cc1ccc(OC(C)C)c(OC)c1 (stereo unspecified),i,-0.27
COc1ccc(-n2c(C)cc(CNS(=O)(=O)c3ccc(OC)c(Cl)c3)c2C)cc1,i,-1.4
CN1CCN(C(=O)c2nc3ccc(Cl)cc3[nH]2)CC1,i,0.14
Cc1nn(-c2nc3ccccc3n2C)c2c1C(c1ccsc1)CC(=O)N2 (stereo unspecified),i,-1.3

# A portion of the library (hit frequency here may not be typical).
